Source: PubChem BioAssay
MLL AF4-AF9 inh – inhibitors of human MLL-AF4/AF9 interaction | AlphaScreen, biotin-AF4 peptide binding to FLAG-AF9 | AID 651704 | inhibition, % at 10 µM | hit rate 0.47% among 350,000;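 active = every replicate reaching a set inhibition limit, whatever the replicate mean, cut at about 25% in these data; inconclusive = mean inhibition reaches that limit but some replicates miss it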;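 note: 0% = plate neutral control median and 100% = total signal loss; the record names both 10 and 1 µM as test concentration; the first replicate is given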
Target sequence (P42568 whole entry, looked up): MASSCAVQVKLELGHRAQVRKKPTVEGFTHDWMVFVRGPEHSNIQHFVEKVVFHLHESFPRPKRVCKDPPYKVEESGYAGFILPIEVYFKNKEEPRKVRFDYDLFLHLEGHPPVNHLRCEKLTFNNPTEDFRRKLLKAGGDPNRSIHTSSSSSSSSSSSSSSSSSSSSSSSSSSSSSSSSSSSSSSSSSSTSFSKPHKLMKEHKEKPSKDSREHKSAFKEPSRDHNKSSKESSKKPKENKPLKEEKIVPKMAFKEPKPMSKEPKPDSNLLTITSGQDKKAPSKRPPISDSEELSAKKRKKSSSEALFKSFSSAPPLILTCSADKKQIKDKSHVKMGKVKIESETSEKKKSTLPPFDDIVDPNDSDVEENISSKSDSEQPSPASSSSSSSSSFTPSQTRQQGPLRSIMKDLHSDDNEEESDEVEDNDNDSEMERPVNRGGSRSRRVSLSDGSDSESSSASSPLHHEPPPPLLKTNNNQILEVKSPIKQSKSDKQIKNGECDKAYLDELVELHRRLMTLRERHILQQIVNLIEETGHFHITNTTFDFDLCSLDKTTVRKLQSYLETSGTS
FGF22 binding – binders of recombinant human FGF22 by thermal shift; Q9HCT0; SYPRO orange fluorescence; percent of sucrose octasulfate shift, DMSO zero; calls only at 9.99 µM; hit rate 1.5% among 340,000;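 active = melting point raised past a set limit in the mean and every replicate; inconclusive = no clear call; three in four hits are not shown here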
Target sequence (Q9HCT0 whole entry, looked up): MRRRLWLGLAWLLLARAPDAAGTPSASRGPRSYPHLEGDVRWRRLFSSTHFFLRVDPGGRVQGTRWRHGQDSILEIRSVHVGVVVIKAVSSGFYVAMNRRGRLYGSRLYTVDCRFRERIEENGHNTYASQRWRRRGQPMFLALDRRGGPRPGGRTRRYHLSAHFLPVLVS
Calb FLC – affects C. albicans growth with fluconazole | C. albicans CaCi-2 (fluconazole-resistant clinical isolate) + fluconazole, Alamar Blue growth, 48 h | growth inhibition, % (no concentration beside the values) | hit rate 0.57% among 300,000;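 active = most replicates above 75%; inconclusive = exactly half above 75%; inactive = most below 75%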;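 note: all wells also contain fluconazole at 8 µg/ml as a sub-toxic cotreatment; 0% = median of DMSO wells and 100% = median of geldanamycin control wells; wells of about 8 µL received 7.5 nL stock; the first replicate is given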
rRNA inh HTS – inhibitors of bacterial rRNA selective over humanized ribosomes; hit rate 1.6% among 350,000; GFP signal change (wild-type ribosome), % (test concentration not listed); E. coli WT GFP vs humanized-ribosome RFP mutants, fluorescence, 24 h; hits give low values; DMSO median 0, no signal -100;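 active = significant combined selectivity score with lowered wild-type GFP, culture density cut under 30%, mutant RFP and density less affected; inactive = any of these conditions unmet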; note: one replicate is shown; some compounds called inactive have numbers as strong as hits
RanGTP-Imp inh – inhibitors of RanGTP-importin-beta interaction, primary screen, biochemical, FRET, CFP-Ran, YFP-importin-beta, homogeneous; cell-free CFP-Ran/YFP-importin-beta FRET ratio; inhibition, % (concentration not given with the values); hit rate 1.1% among 300,000;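 active = most replicates above 15%; inconclusive = exactly half above 15%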;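 note: 0% = DMSO wells and 100% = Ran loaded with GDP instead of GTP; wells of about 40 µL received 100 nL stock; the first replicate is given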
Beta apoptosis – blocks beta cell apoptosis. INS-1E cytokine-induced death, ATP luminescence, 48 h; percent of positive-control rescue, neutral wells zero. protection from apoptosis, % (no concentration beside the values). hit rate 0.8% among 300,000;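 active = all replicates at 75% or more, or half of them and the mean; inconclusive = half reach 75% but not the mean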;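 note: 0% = cytokine-treated negative control wells and 100% = positive control rescue; higher means more ATP so stronger rescue from cytokine killing; wells of about 40 µL received 100 nL stock; the first replicate is given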
ALR H2O2 inh – inhibitors of human sulfhydryl oxidase ALR | P55789 | AID 485317 | hit rate 3.8% among 290,000 | inhibition, % (no concentration beside the values) | purified ALR, DTT oxidation, H2O2 HRP-luminol luminescence;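 active = mean and each replicate at 75% or more; inconclusive = only one of the two met; inactive = neither met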;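 note: stock transfer was 7.5 nL into about 7.5 µL; 0% = neutral wells and 100% = wells with inactivated enzyme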
Target sequence (P55789 whole entry, looked up): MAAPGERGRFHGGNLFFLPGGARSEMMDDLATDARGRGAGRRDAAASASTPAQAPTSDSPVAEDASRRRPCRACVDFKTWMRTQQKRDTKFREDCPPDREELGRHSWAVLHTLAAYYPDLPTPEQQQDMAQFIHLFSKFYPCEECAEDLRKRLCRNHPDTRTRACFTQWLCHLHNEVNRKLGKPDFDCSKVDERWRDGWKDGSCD
T cruzi repl – blocks replication of Trypanosoma cruzi; AID 1885; hit rate 1.4% among 300,000; inhibition, % (no concentration beside the values); T. cruzi beta-gal in NIH3T3, luminescence, 90 h;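 active = mean inhibition across valid replicates above about 55%, limit read from the data; inconclusive = mean below that limit but half or more replicates reach it; inactive = mean below it, under half of replicates reach it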;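 note: signal also drops with host cell toxicity which is not excluded here; 0% = plate median of DMSO wells and 100% = zero luminescence signal; higher percent means less beta-gal luminescence so fewer parasites; stock transfer was 50 nL into about 50 µL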
rRNA inh HTS OD600 – recorded beside rRNA inh HTS, whose call it bears; OD600 change, %; measured here: OD600 growth;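 optical density of the mix in the first replicate; 0 = DMSO median and -100 = no signal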
rRNA inh HTS RFP – further read-out of rRNA inh HTS, marked with its call; RFP signal change, %; measured here: RFP humanized mutant strains;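 first replicate; 0 = DMSO median and -100 = no signal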
The depositor's hits bear a star; i = inactive; ? = inconclusive; nt = not tested or not shown. These rows are one share of the data. The share of hits here may be higher or lower than overall.

SMILES	MLL AF4-AF9 inh	FGF22 binding	Calb FLC	rRNA inh HTS	rRNA inh HTS OD600	rRNA inh HTS RFP	RanGTP-Imp inh	Beta apoptosis	ALR H2O2 inh	T cruzi repl
CN(CC(=O)NC1CCCCCC1)S(=O)(=O)c1ccc2c(c1)n(C)c(=O)c(=O)n2C	2.4	i	0	1	7	-1.8	-2.3	5	-5	-5
CN(C)C(CNC(=O)c1ccc2c(c1)S(=O)(=O)c1ccccc1C2=O)c1ccco1 (centres undefined)	4.8	i	-3	-2	-8	-3.0	0.8	2	2	4
CCN(CC)c1ccc(NC(=O)Cn2ncc3c(C)n(Cc4ccccc4F)c(C)c3c2=O)c(C)c1	1.1	i	-18	5	10	-1.2	?	12	-46	2
CCC1(C(=O)OC)NC(c2ccccc2OC)C2C(=O)N(C)C(=O)C21 (centres undefined)	nt	nt	-6	nt	nt	nt	0.5	-1	nt	-4
COc1cccc(N2CCN(S(=O)(=O)c3ccc4c(c3)NC(=O)CS4)CC2)c1	-6.8	i	0	1	6	0.6	-4.2	-1	-1	2
Nc1nc(NCC2CCCO2)nc(Nc2cccc(F)c2)c1[N+](=O)[O-] (centres undefined)	31*	i	2	18	5	-1.0	3.3	3	8	-1
CCOC(=O)c1ccc(NC(=O)C(=O)NCc2ccncc2)cc1	3.3	i	16	-10	-7	-4.1	-1.0	-11	-5	-7
COc1ccc(CNC(=O)CCSCc2ccc(C)cc2)cc1	0.6	i	-10	-14	-3	-1.1	-1.9	-2	nt	-3
COc1cc(C#Cc2c(-c3cncn3C)n(C)c3ccc(-c4cc(OC)c(OC)c(OC)c4)cc23)cc(OC)c1	8.0	i	nt	17	26	17	nt	22	2	nt
COc1ccc(C2C(C(=O)c3sc(C)nc3C)=C(O)C(=O)N2CCN(C)C)cc1 (centres undefined)	nt	nt	-5	nt	nt	nt	-1.4	-1	2	-5
Cc1ccc([N+](=O)[O-])cc1NC(=O)Nc1cccc(F)c1	-1.2	i	-3	-30	-44	13	5.6	nt	nt	23
CC(=O)Nc1ccc(NC(=O)C(Sc2ccccc2)c2ccccc2)cc1 (centres undefined)	-8.7	i	-12	1	9	-0.6	1.6	6	-5	11
Cc1ccc(-n2nnc(-c3cccnc3)n2)cc1	-8.1	i	3	-7	3	0.9	4.9	-6	24	-11
CCCCN(C(=O)CCC(=O)Nc1cc(C)on1)C(C(=O)NC1CCCC1)c1ccccc1OCC (centres undefined)	1.7	i	-5	2	9	2.4	-3.1	-4	nt	14
COc1cc2c(c(O)c1OC)-c1c(cc(OC)c(OC)c1OC)C[C@@H](C)[C@@H](C)C2	-46	i	12	-42	-62	-11	3.5	0	-28	-8
CCN(CC)CCN1C(=O)C(O)=C(C(C)=O)C1c1ccc(OC)c(OC)c1 (centres undefined)	nt	nt	8	nt	nt	nt	0.0	-6	-17	-17
CCOc1ccc(NC(=O)CSc2nnc(-c3ccncc3)n2CC2CCCO2)cc1 (centres undefined)	nt	nt	-14	nt	nt	nt	-0.1	-11	-10	-3
C/C(Nc1ccccc1)=C(/C#N)C(N)=O	nt	nt	2	nt	nt	nt	2.0	-7	-10	0
CC(CNC(=O)c1ccc(C#N)cc1)NC(=O)c1ccc(C#N)cc1 (centres undefined)	-1.9	i	-2	1	2	-5.2	8.3	5	-6	-10
COc1ccc(Cl)cc1NC(=O)C1Cc2ccccc2CN1S(C)(=O)=O (centres undefined)	0.4	i	-3	-20*	-12*	5.4*	0.9	-2	1	13
CCC(C)NC(=O)CSc1nc2scc(-c3ccccc3)c2c(=O)[nH]1 (centres undefined)	4.3	i	8	16	-3	-4.9	-1.1	-4	-3	-16
CC/S(=N\S(=O)(=O)c1ccc(C)cc1)c1ccccc1 (centres undefined)	-2.2	i	2	7	7	1.8	5.3	5	17	nt
Cc1cc(-c2ccccc2)nc(N(C)NC(=O)C(C)(C)C)c1S(C)(=O)=O	-21	i	-1	1	8	-0.9	3.2	3	-27	-6
CCCOC(=O)C1[C@H]2C(=O)N(CC3CCCO3)C[C@]23C=C[C@H]1O3 (some centres undefined)	nt	nt	3	nt	nt	nt	4.4	3	-18	-9
COc1ccc(/C=C/C(=O)O)cc1Cl	43*	i	1	0	3	-6.0	0.8	-6	nt	-14
O=C1NCCNC1(c1c[nH]c2ccccc12)C(F)(F)F (centres undefined)	2.4	i	2	4	12	-0.1	2.4	-3	nt	1
CN1C(C(=O)Nc2ccc(OC(F)(F)F)cc2)=CC(c2cccs2)=NS1(=O)=O	1.8	i	-9	-29	-50	4.4	2.9	-2	-6	22
CC(c1ccccc1)n1c(SCC(=O)Nc2ccccc2)n[nH]c1=O (centres undefined)	0.8	i	3	-2	6	5.9	-1.9	nt	nt	-1
O=C(NCCC1=CCCCC1)C(=O)NCc1ccccc1	nt	nt	-2	nt	nt	nt	-3.3	-1	73	16
CC(C)c1nc(CNC(=O)CC2C(=O)NCCN2Cc2ccoc2)cs1 (centres undefined)	-1.9	nt	-15	25	25	4.3	3.8	3	-5	-7
CC(=O)Nc1cccc(Oc2ncnc3scc(-c4ccccc4)c23)c1	nt	nt	-12	nt	nt	nt	-4.8	4	20	-23
Nc1nonc1-n1nnc(C(=O)N/N=C/c2cc(Br)cs2)c1-c1ccccc1	-0.7	i	12	-7	0	2.5	2.9	-1	nt	-15
O=C(COC(=O)c1ccc(F)cc1)NCCCc1ccccc1	-4.7	i	-8	-1	5	0.3	1.6	-4	-3	-4
CCn1c(O)c(N=NC(=O)c2cccc(S(=O)(=O)N3CCCCC3)c2)c2ccccc21	13	i	2	-24*	-16*	-4.8*	0.0	31	nt	41
CCOC(=O)N1CCC(NC(=O)c2ccc(CS(=O)c3ccc(Cl)cc3)o2)CC1 (centres undefined)	0.6	nt	-5	-5	-14	-2.2	1.2	-6	2	-6
CC(=O)Nc1ccc(NC(=O)CN2C(=O)COc3ccc(S(=O)(=O)N4CCOCC4)cc32)cc1	0.7	i	-3	0	3	-1.0	7.8	-8	-7	-3
O=C(Nc1ncccc1O)c1cccc(S(=O)(=O)N2CCc3ccccc32)c1	nt	nt	-30	nt	nt	nt	-1.3	1	33	29
O=C(NNS(=O)(=O)c1ccc(F)cc1)C1CCN(Cc2cccc(F)c2)CC1	1.1	nt	29	6	11	0.2	1.9	-3	12	0
NC(=O)N=Nc1c(O)[nH]c2c(Br)cc(Br)cc12	nt	nt	-2	nt	nt	nt	-2.6	9	-6	2
COc1cccc(N2CCN(C(=S)Nc3ccccc3OC)CC2)c1	4.4	i	-8	-2	6	-5.0	3.5	-2	?	-3
COc1ccc(NC(=O)CN(c2ccccc2F)S(=O)(=O)c2ccc(C)cc2)c(OC)c1	-0.1	i	3	10	12	6.8	-3.0	8	-1	4
Cc1ccc(OCc2nnc(SCC(=O)Nc3ccc(N4CCOCC4)cc3)o2)cc1	-1.0	i	-5	8	13	0.6	-0.8	0	-3	-8
CC1CC2C3CCC4=CC(=O)C=CC4(C)C3(F)C(O)CC2(C)C1(O)C(=O)CO (centres undefined)	-2.2	i	2	-2	-2	-3.3	-2.7	-1	-2	30
Cc1cc(/C=N/NC(=O)CC#N)c(C)n1-c1ccc([N+](=O)[O-])cc1	0.7	i	-3	-5	-2	-1.0	-1.3	nt	10	6
COc1ccc(-c2cc(C(=O)NN)[nH]n2)cc1	-0.4	i	33	-3	10	-5.2	5.4	1	45	-15
CC(=O)C1=C(Nc2ccc(C)cc2)CC(C)(O)C(C(C)=O)C1c1ccco1 (centres undefined)	20	nt	-7	nt	nt	nt	1.7	4	-12	-6
COc1ccc(NC(=O)CSc2ccc3nnc(-c4ccccn4)n3n2)cc1	-3.2	i	-1	3	11	4.2	-6.4	-4	-3	5
C=CCOc1ccc(/C=C2\SC(N3CCCCC3)=NC2=O)cc1	-2.1	i	-7	-5	-8	-4.9	-2.1	-4	-15	-2

2 records drawn at random from those above, as already listed:
SMILES	MLL AF4-AF9 inh	FGF22 binding	Calb FLC	rRNA inh HTS	rRNA inh HTS OD600	rRNA inh HTS RFP	RanGTP-Imp inh	Beta apoptosis	ALR H2O2 inh	T cruzi repl
C=CCOc1ccc(/C=C2\SC(N3CCCCC3)=NC2=O)cc1	-2.1	i	-7	-5	-8	-4.9	-2.1	-4	-15	-2
Cc1ccc(OCc2nnc(SCC(=O)Nc3ccc(N4CCOCC4)cc3)o2)cc1	-1.0	i	-5	8	13	0.6	-0.8	0	-3	-8

Carrying on:
SMILES	MLL AF4-AF9 inh	FGF22 binding	Calb FLC	rRNA inh HTS	rRNA inh HTS OD600	rRNA inh HTS RFP	RanGTP-Imp inh	Beta apoptosis	ALR H2O2 inh	T cruzi repl
COc1cc(OC)cc(C(=O)N[C@H](C(=O)OCC(=O)c2ccc(C)c([N+](=O)[O-])c2)C(C)C)c1	2.1	i	nt	0	12	0.0	nt	0	-8	nt
O=C(Nc1ccc2c(c1)OCO2)N1CCN(C/C=C/c2ccccc2)CC1	nt	nt	3	nt	nt	nt	5.5	1	-8	3
O=[N+]([O-])c1ncn(Cc2ccccc2Cl)n1	nt	nt	16	nt	nt	nt	?	-6	-101	52
O=C(O)CC(c1cccc(Cl)c1)n1cccc1 (centres undefined)	nt	nt	11	nt	nt	nt	2.6	1	nt	0
O=C(N/N=C\c1coc2ccccc2c1=O)c1ccco1	-1.0	i	-10	0	-8	-0.8	-0.4	-3	45	3
O=C(CSc1nc2ccccc2nc1SCC(=O)N1CCOCC1)N1CCOCC1	nt	nt	-5	nt	nt	nt	0.0	-6	-3	-5
COc1cc2c(cc1OC)CN(C(=S)Nc1ccc(Cl)cc1)CC2	nt	i	-4	-6	-3	0.5	10	-4	-15	-14
Cc1nc(C(=O)Nc2ccc(Cl)cc2)sc1C1(C)CC(c2cccc([N+](=O)[O-])c2)=NO1 (centres undefined)	5.2	i	-8	13	8	2.3	4.5	14	-5	66*
COc1ccccc1NC(=O)C(C)OC(=O)CC1CCCC1 (centres undefined)	1.1	i	4	-15	0	2.9	0.0	1	-3	-5
CC(C)Cc1cc(C(=O)N2CCCC(CO)(Cc3ccc(F)cc3F)C2)n[nH]1 (centres undefined)	1.0	i	-7	1	9	-2.7	-2.1	-3	-34	12
Cc1cc(NC(=O)CC(C)C)c(=O)n(Cc2cccc(F)c2)c1	-7.8	i	-13	3	-5	3.4	-2.1	-2	-25	0
O=C(C1CC1)N1CCN=C1SCc1ccccc1Cl	-6.7	i	0	3	5	0.1	-3.8	nt	99*	-18
C/C(=N\NC1=NCCN1)c1ccc(Cl)cc1	1.1	i	6	12	-1	0.9	0.3	0	3	25
CCOc1cccc(CNn2cnnc2)c1OCc1ccccc1Cl	nt	nt	-1	nt	nt	nt	3.9	-5	-4	3
CCCCSc1nnc(CNC(=O)C23CC4CC(CC(C4)C2)C3)n1Cc1ccccc1	3.1	i	-20	-54	-75	-30	0.5	2	0	20
COc1ccc(-n2ccn3c(CCC(=O)N4CCN(c5cccc(C)c5C)CC4)nnc3c2=O)cc1	0.4	i	-5	-5	-4	-4.0	9.0	-3	-3	-25
COc1cccc2sc(Nc3nc(-c4cc5ccccc5oc4=O)cs3)nc12	nt	nt	-2	nt	nt	nt	1.0	4	nt	6
